VDR inhibitor – vitamin D3 receptor (human) inhibition | P11473 | VDR-SRC2-3 peptide fluorescence polarization, 2 h | Potency, µM, inactives show max response, negative = inhibition, hits mostly inhibitors | 400,000 tested, 0.93% active | AID 504847; active = well fitted inhibition curve with a large enough effect; inconclusive = small, poorly fitted or top-dose-only effect, or another doubt; inactive = no such curve, though single readings can be large or run the other way; also: series mostly up to about 120 µM
Target sequence (P11473 whole entry, looked up): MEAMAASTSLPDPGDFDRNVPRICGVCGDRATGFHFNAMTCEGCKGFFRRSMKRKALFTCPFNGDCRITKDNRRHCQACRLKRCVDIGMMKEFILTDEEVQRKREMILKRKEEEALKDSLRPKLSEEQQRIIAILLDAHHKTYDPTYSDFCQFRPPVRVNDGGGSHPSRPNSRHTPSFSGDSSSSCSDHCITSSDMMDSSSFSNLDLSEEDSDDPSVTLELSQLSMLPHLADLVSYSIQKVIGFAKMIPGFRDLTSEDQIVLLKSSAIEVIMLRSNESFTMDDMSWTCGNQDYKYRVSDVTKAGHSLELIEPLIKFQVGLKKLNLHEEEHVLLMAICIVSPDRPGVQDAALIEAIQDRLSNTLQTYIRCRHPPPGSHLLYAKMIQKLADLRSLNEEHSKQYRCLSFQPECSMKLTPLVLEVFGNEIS
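Two reagent solutions held at 4 deg C in the dark were dispensed, compounds pinned at 23 nl, and the mixture incubated 2 h at room temperature. Read-out: fluorescence polarization of VDR–SRC2-3 peptide binding.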
Starred values were filed as active, the others as inactive; u = inconclusive; & = joins results of further samples; [ ] = dose if it differs, or a comment. % is scaled to controls: 0 for no effect and ±100 for the full control effect; potency is read from the fitted curve at half-maximal effect.

entry | molecule | VDR inhibitor
1 | CCC(C(=O)N1CCOCC1)n1c2ccccc2c2nc(=O)cc(C)n21 (stereo not drawn) | 0%
2 | Cc1nc(OCc2ccccc2)c2sc3nc4c(cc3c2n1)COC(C)(C)C4 | 3%
3 | O=C(CCCN1C(=O)/C(=C\c2ccco2)SC1=S)Nc1ccc(O)cc1C(=O)O | u
4 | COc1ccc(CN(Cc2ccc(C(=O)O)cc2)C(=S)Nc2ccc(C)cc2)cc1OC | -11%
5 | CC(C)c1cccc(C(C)C)c1NC(=O)COc1nncc2ccccc12 | 1%
6 | COc1cccc(Cn2c(=O)c(C)nc3cnc(OCc4ccccc4)nc32)c1 | -8%
7 | NC(=O)c1nsc(C(=O)N(CC(=O)NC2CCCC2)c2ccc(F)c(Cl)c2)c1N | -3%
8 | CCN(CC)S(=O)(=O)c1cccc(C(=O)NCC2CCCCC2)c1 | u
9 | O=C1c2ccccc2C(=O)N1Cc1nc(-c2ccccn2)no1 | 2%
10 | COc1ccc(CNC(=O)C2(CC3CC(c4ccccc4)=NO3)CCNCC2)cc1 (stereo not drawn) | -16%
11 | O=C(c1cc2cc(Cl)ccc2[nH]1)N1CCN(C(=O)c2ccco2)CC1 | u
12 | CN(C)/N=C/c1ccc(Sc2ccc([N+](=O)[O-])cc2[N+](=O)[O-])o1 | -23%
13 | CCOCCCn1c(C)nc2c(c1=O)c1nc3ccccc3nc1n2CCC1=CCCCC1 | 10%
14 | O=C(COc1ccc([N+](=O)[O-])cc1)NC(C(=O)O)C(O)c1cccc([N+](=O)[O-])c1 (stereo not drawn) | -21%
15 | CCOc1ccc(CNC(=O)c2ccc3nc(Cc4ccc(OC)cc4)oc3c2)cc1OC | 0%
16 | COCCCNC(=O)CC(NCCCOC)C(=O)O (stereo not drawn) | 5%
17 | O=C(CCC1CCCCC1)Nc1c2c(nn1-c1ccc(F)cc1)CS(=O)C2 (stereo not drawn) | 24%
18 | O=C(Nc1ccccc1-c1nc2ccccc2[nH]c1=O)c1cccs1 | 2%
19 | CCCCC(=O)Nc1ccc(C(=O)Nc2ccc(S(=O)(=O)N3CCCC3)cc2)cc1 | -18%
20 | c1ccc2nc(N3CCCC3)c(N3CCCC3)nc2c1 | 4%

Continuation.
entry | molecule | VDR inhibitor
21 | Cc1onc(-c2ccccc2)c1C(=O)NCc1cccc(Cl)c1 | -2%
22 | Cc1cccc(C)c1NC(=O)CN1C(=O)S/C(=C\c2cccn2C)C1=O | -7%
23 | Cc1cccc(-n2nc(C)c3c(C(=O)O)cc(-c4cccs4)nc32)c1 | -7%
24 | COc1cccc(COC(=O)c2cc(S(=O)(=O)N3CCCCC3)ccc2N2CCOCC2)c1OC | -12%
25 | CN(C)C(=O)c1ccc(OCC(F)(F)F)nc1 | -4%
26 | O=C(CSc1nc2ccccc2n1Cc1ccccc1)N/N=C/c1ccccc1C(=O)O | 15%
27 | Cc1cccc(Cn2c(SCc3ccc(C(=O)NC4CCCC4)cc3)nc3ccncc32)c1 | -3%
28 | CC(C)CNC(=O)/C=C/C=C/c1ccc2c(c1)OCO2 | 6%
29 | Cn1c(=O)[nH]c(Nc2ccccc2)c([N+](=O)[O-])c1=O | 2%
30 | COc1ccc(CNC(=O)Cn2cnc3c(OCc4ccccc4)ncnc32)cc1 | 10%
31 | O=C(CNC(=O)c1ccc(Cl)cc1Cl)OCn1nnc2ccccc2c1=O | -9%
32 | Cc1ccc(-c2cccc(C(=O)NCCc3ccccc3)n2)c2ccccc12 | -2%
33 | Cc1ccc2c(c1)C1CN(C)CCC1N2S(=O)(=O)c1ccc(C#N)cc1 (stereo not drawn) | -15%
34 | COc1ccc(S(=O)(=O)N(C)C[C@H]2Oc3ccc(NC(=O)NC4CCCCC4)cc3C(=O)N([C@H](C)CO)C[C@@H]2C)cc1 | 5%
35 | O=C(Nc1ccc2oc(-c3ccc4ccccc4c3)nc2c1)c1cc(Br)ccc1Cl | 7%
36 | COc1ccc(Cc2nc3ccccc3n2Cc2ccccc2C)cc1 | 0%
37 | CC(C)CCOP(=O)(c1ccc(N(C)C)cc1)C(O)c1ccccc1 (stereo not drawn) | 2%
38 | COc1cccc(-c2ccc(NC(=O)C3CCCN(Cc4cnc(C)n4C)C3)cc2)c1 (stereo not drawn) | -7%
39 | COc1ccc(CNC(=O)C(NS(=O)(=O)c2ccc3c(c2)CCCN3C(C)=O)C(C)C)cc1 (stereo not drawn) | 37%[activator]
40 | COc1ccc(-n2nnnc2SCC(=O)c2cc3ccccc3o2)cc1 | -14%

Next part.
entry | molecule | VDR inhibitor
41 | CN(C)S(=O)(=O)N1CCN(CC(O)COc2ccc(C(=O)c3ccccc3)cc2)CC1 (stereo not drawn) | -2%
42 | CC1(C)CN2C(=O)c3ccccc3C2(C)S1 (stereo not drawn) | -23%
43 | COc1ccc(C(=O)N2CCN(S(=O)(=O)c3ccccc3)CC2)c(OC)c1 | -6%
44 | CC(C)C(c1nnnn1CCc1ccccc1)N1CCOCC1 (stereo not drawn) | 17%
45 | CN1CCN(Cc2nc3ccccc3n2C)CC1CCO (stereo not drawn) | -3%
46 | c1ccc(-c2cccc(N3CC[C@@]4(CCCNC4)C3)c2)cc1 | u
47 | N/C(=N\OC(=O)c1cc(Cl)ccc1Cl)c1cccnc1 | 20%
48 | COCCNC(=O)CSc1nc2cc3c(cc2c(=O)n1CCCC(=O)NCCc1ccc(OC)c(OC)c1)OCO3 | -7%&0%
49 | Cn1c(=O)c([N+](=O)[O-])c(NCc2ccccc2)c2ccccc21 | 6%
50 | Cc1cccc(C)c1NC(=O)COC(=O)/C=C/c1ccc(S(=O)(=O)N2CCOCC2)cc1 | -2%
51 | Cc1ccc(NC(=O)C(=O)NCc2ccc(/C=N/NC(=O)c3c(C)nc4ccccn34)o2)cc1 | -10%
52 | COc1ccccc1C(=O)Nc1ccc(S(=O)(=O)N2CCOCC2)cc1 | 1%
53 | CCCCC(=O)OC1CCC2C3CCc4cc(O)ccc4C3CC[C@]12C (stereo partly drawn) | -5%
54 | Cc1oc2ncn(CC(C)C)c(=O)c2c1C(=O)NCCc1ccccc1 | 20%
55 | COc1cc(Cl)ccc1OCc1cc(C(=O)N(C)Cc2cccc3cnccc23)no1 | -4%
56 | CC(C)[C@H](NC(=O)N1CCn2c1nc1ccccc12)C(=O)NC1CCCCC1 | -6%
57 | CCCCNC(=O)Cc1ccc(C)cc1 | -17%
58 | Cc1sc(NC(=O)c2cc(-c3ccc(Cl)cc3)nc3ccccc23)c(C(N)=O)c1C | -10%
59 | Cc1ccc(-n2nc(C)c3c2OC(N)=C(C#N)C3c2ccco2)cc1 (stereo not drawn) | -18%
60 | Cc1ccc(N(C)S(=O)(=O)c2csc(C(N)=O)c2)cc1C | -8%

Later entries:
entry | molecule | VDR inhibitor
61 | COCCN(C(=O)CSc1nncn1-c1ccccc1)c1c(N)n(Cc2ccccc2)c(=O)[nH]c1=O | -4%
62 | O=C(Cc1ccc(-n2c(=O)c3ccccc3n(Cc3ccc(F)cc3)c2=O)cc1)NCC1CCCO1 (stereo not drawn) | -14%
63 | Cc1cc(S(=O)(=O)NCc2ccccc2)ccc1OCC(=O)NCc1ccccn1 | -4%
64 | O=C(/C=C/c1ccccc1)Nc1cc(S(=O)(=O)N2CCOCC2)ccc1N1CCOCC1 | -3%
65 | O=C(CCNS(=O)(=O)c1ccccc1)NNC(=O)COc1ccc(Cl)cc1 | -6%
66 | CCCN(CCC)C(=O)NC1CC(=O)N(c2ccc(OC)cc2)C1 (stereo not drawn) | -5%
67 | O=C(NC1CCCC1)C(c1ccc(F)cc1)N(Cc1ccc(Cl)cc1)C(=O)CCl (stereo not drawn) | -15%
68 | COC(=O)C1CC2(C(=O)OC)CC(C(=O)OC)(CC(C(=O)OC)C2=O)C1=O (stereo not drawn) | -11%
69 | COC(CNC(=O)C1CCC(CNS(=O)(=O)c2c(C)cc(C)cc2C)CC1)OC (stereo not drawn) | 2%
70 | C#CCOCCOCCOCCNc1nc(N2CCN(C(=O)[C@H](CCC(=O)O)n3cc([C@@H](N)[C@H](C)CC)nn3)CC2)nc(N2CCN(C(=O)[C@H](CCC(=O)O)n3cc([C@@H](N)CCSC)nn3)CC2)n1 | -20%
71 | CS(=O)(=O)N(Cc1ccc(Cl)cc1)c1ccc(C(=O)NCCC2=CCCCC2)cc1 | 1%
72 | O=C(O)c1ccc2c(c1)N(Cc1ccccc1)C(=O)c1ccccc1S2=O (stereo not drawn) | -28%
73 | NC(=O)CC(NC(=O)c1ccc(Br)cc1)c1ccc(NC2CCCCCC2)c([N+](=O)[O-])c1 (stereo not drawn) | -7%
74 | O=C(N/N=C/c1ccc([N+](=O)[O-])cc1)c1cc2ccccc2o1 | -13%
75 | CC(C)Oc1ccc(CNC(=O)c2cnc3sc(N4CCCCCC4)nn3c2=O)cc1 | 6%
76 | CCC(=O)/C=C1\Sc2ccc(OC)cc2N1CCO | 6%
77 | CC1CCN(S(=O)(=O)c2ccc(NC(=O)C3CCCCC3C(=O)O)cc2)CC1 (stereo not drawn) | -8%
78 | Cc1ccc(C2NC(=O)c3sc(=S)n(-c4ccccc4)c3N2)cc1 (stereo not drawn) | -28%
79 | CC(Cc1cccs1)NC(=S)Nc1ccc(Cl)cc1 (stereo not drawn) | 3%
80 | COc1ccc(-c2cc(C(F)(F)F)nc(-n3ccnc3C)n2)cc1 | -4%

Arranged by formula weight (falling): part of the list above.
entry | molecule | VDR inhibitor
67 | O=C(NC1CCCC1)C(c1ccc(F)cc1)N(Cc1ccc(Cl)cc1)C(=O)CCl (stereo not drawn) | -15%
63 | Cc1cc(S(=O)(=O)NCc2ccccc2)ccc1OCC(=O)NCc1ccccn1 | -4%
65 | O=C(CCNS(=O)(=O)c1ccccc1)NNC(=O)COc1ccc(Cl)cc1 | -6%
68 | COC(=O)C1CC2(C(=O)OC)CC(C(=O)OC)(CC(C(=O)OC)C2=O)C1=O (stereo not drawn) | -11%
72 | O=C(O)c1ccc2c(c1)N(Cc1ccccc1)C(=O)c1ccccc1S2=O (stereo not drawn) | -28%

Later entries:
entry | molecule | VDR inhibitor
81 | C=CCn1c(C)nnc1SCC(=O)NC1CC1 | -2%
82 | Cc1ccc(NC(=O)COC(=O)c2ccc(Cl)nc2)cc1S(=O)(=O)N1CCCCC1 | 22%
83 | Cc1ccc(N2C(=O)CC(Sc3ncccn3)C2=O)cc1C (stereo not drawn) | 13%
84 | CC(C)(C)c1ccc(C(=O)Nc2nonc2-c2nc3ccccc3[nH]2)cc1 | 2%
85 | CC(OC(=O)c1ccc2ncsc2c1)C(=O)N(C)C1CCCCC1 (stereo not drawn) | -14%
86 | O=C(CNC(=O)c1ccc2c(c1)OCO2)N/N=C/c1cc(Br)ccc1O | -8%
87 | CCCn1cc(S(=O)(=O)c2cccc(Cl)c2)c(=O)c2cc(F)c(N3CCCC3)cc21 | 10%
88 | S=c1[nH]ncc2ccccc12 | 4%
89 | COc1ccc(S(=O)(=O)NCC2CC3C=CC2C3)cc1OC (stereo not drawn) | -8%
90 | COc1cc(/C=N/NC(=O)c2cnn3c(C)cc(-c4ccccc4)nc23)ccc1O | 1%
91 | Cc1noc(/C=C/N(C)C)c1S(=O)(=O)N1CCCC(C(=O)NCc2ccc(Cl)cc2)C1 (stereo not drawn) | -6%
92 | CCN(CC1COc2ccccc2O1)C(=S)Nc1ccc(F)cc1 (stereo not drawn) | -23%
93 | COc1ccc(/C=C/C(=O)C2(O)CCCCC2)cc1 | -11%
94 | CC(C)NC(=O)N(C)C[C@H]1Oc2ccc(NS(=O)(=O)c3ccccc3)cc2C(=O)N([C@H](C)CO)C[C@H]1C | 0%
95 | Cc1ccn2c(=O)nc(SCC(=O)N3CCC(C)CC3)nc2c1 | -11%
96 | COCCCNC(=O)CCc1nc2cccnc2n1Cc1ccccc1 | 7%
97 | O=C(Nc1ccc(C(=O)N2CCCCC2)cc1)C1CCC1 | -6%
98 | Cc1nc2nc(C)n(CCN3CCOCC3)c(=O)c2c(-c2cccc([N+](=O)[O-])c2)c1C(=O)CCCCCCCCCCN1CCC(c2ccccc2)(c2ccccc2)CC1 | -4%
99 | COc1ccccc1N(C)S(=O)(=O)c1ccc(Cl)c(C(=O)Nc2cccc(C)n2)c1 | 11%
100 | O=C(Nc1ccc(Br)cc1)c1cccnc1N1CCCCC1 | -7%

Going on with the list:
entry | molecule | VDR inhibitor
101 | CCOP(=O)(OCC)c1ccc2c(c1)C(=O)c1ccccc1CC2 | -21%
102 | COc1cccc(Nc2ncc3ncc(=O)n(Cc4cccs4)c3n2)c1 | -1%
103 | C=CCN1C(=O)c2ccc(C(=O)N(CC)CC(=O)Nc3c(F)cccc3F)cc2C1=O | -2%
104 | COCCNC(=O)CSc1nc2nc(C)cc(C)n2n1 | -6%
105 | O=C(Oc1ccccc1C(=O)N1CCOCC1)c1ccc(F)cc1 | 11%
106 | CC(Oc1ccccc1F)C(=O)NCC1(N2CCOCC2)CCCCC1 (stereo not drawn) | -5%
107 | Clc1ccccc1C=NNc1ccccn1 | -1%
108 | COc1cc(-c2ccno2)ccc1S(=O)(=O)N1CCN(c2ccc(C(C)=O)cc2)CC1 | 5%
109 | O=c1[nH]c(=S)[nH]c(-c2ccccc2)c1Cc1c(O)ccc2ccccc12 | 22µM*
110 | CCN1CC(CNC(=O)c2ccc3nc(Cc4cccc(Cl)c4)oc3c2)CC1=O (stereo not drawn) | -13%
111 | CCCCC(=O)NC(c1ccc([N+](=O)[O-])cc1)c1c(O)ccc2ccccc12 (stereo not drawn) | -20%
112 | CN(CCNC(=O)c1cccc(N2CCCC2=O)c1)Cc1ccccc1 | 2%
113 | CCCn1c2ccccc2c2cn[nH]c(=O)c21 | -19%
114 | Cc1ccc(Nc2nnc(SCC(=O)c3c(N)n(C4CC4)c(=O)[nH]c3=O)s2)cc1C | -2%
115 | Cc1cc(C)c(NC(=O)Cn2c(=O)n(CCC(=O)N3CCc4ccccc4C3)c(=O)c3ccccc32)c(C)c1 | 21%
116 | O=c1[nH]ccc2c([N+](=O)[O-])cccc12 | -10%
117 | COc1cc(S(=O)(=O)NC2CCCCC2C)ccc1-n1cnnn1 (stereo not drawn) | 15%

Not all compounds are listed; count on the stated rates, not on these rows.
